Compound activity: PubChem BioAssay, National Center for Advancing Translational Sciences (NCATS)
miR-21 FLuc = qHTS Assay for Modulators of miRNAs and/orActivators of miR-21. Potency, µM (highest dose often 38.3 µM), for the others: top-dose reporter change, positive = more light. HeLa miR-21 FLuc reporter, luciferase, 48 h. 340,000 tested, under 10 active. AID 2288, 2010; active = well fitted rising curve with a large enough effect; inconclusive = small, poorly fitted or top-dose-only effect; inactive = no such curve, though single readings can be large or run the other way;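 further: % of control where 0% means no effect; miR-21 action dims this reporter so a rising signal means less miR-21 action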
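Luminescence from a firefly luciferase reporter carrying a miR-21 binding site downstream, stably expressed under a CMV promoter in HeLa cells that make miR-21 endogenously, reports miRNA modulation after 48 h compound exposure up to approximately 40uM final.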
Rango complex inh = qHTS Assay for Inhibitors of Rango (Ran-regulated importin-beta cargo) - Importin beta complex formation. Importin subunit beta-1 (Homo sapiens), Q14974. Potency, µM (doses to about 92.2 µM), for inactives: top-dose inhibition of complex formation. Rango CFP/YFP FRET sensor + importin beta, 45 min. actives 0.031% (n = 340,000); active = rising FRET ratio curve, often small or poorly fitted; inconclusive = mostly compound fluorescence or quenching in the first reads; inactive = flat curves in all reads;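 further: potency means the concentration at half of the fitted maximal effect; 0% = DMSO wells and 100% = buffer wells lacking importin beta; nearly all actives have a fitted effect of over 15% in size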
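Inhibition scored from the CFP 486 nm/YFP 530 nm FRET ratio 45 min after adding 0.125 microM importin beta to 50 nM Rango biosensor preincubated 5 min with compound (room temperature, PBS with DTT, Tween-20, BSA). No-importin wells as positive control.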
GLA inh pH 4.5 = qHTS Assay for Inhibitors of Human alpha-Galactosidase at pH 4.5; activity change, negative = inhibition, % at 105 µM; 230,000 tested, under 10 active; purified enzyme, 4-MU-alpha-Gal fluorescence, pH 4.5; Alpha-galactosidase A (Homo sapiens), P06280; inconclusive = small, poorly fitted or top-dose-only inhibition, or a rising curve; inactive = flat fitted curve, though single readings scatter; no compound was filed as active;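 further: 0% = full activity with enzyme and -100% = basal without enzyme; dose as in the result columns while the protocol names 77 µM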
Target sequence (P06280 whole entry, looked up): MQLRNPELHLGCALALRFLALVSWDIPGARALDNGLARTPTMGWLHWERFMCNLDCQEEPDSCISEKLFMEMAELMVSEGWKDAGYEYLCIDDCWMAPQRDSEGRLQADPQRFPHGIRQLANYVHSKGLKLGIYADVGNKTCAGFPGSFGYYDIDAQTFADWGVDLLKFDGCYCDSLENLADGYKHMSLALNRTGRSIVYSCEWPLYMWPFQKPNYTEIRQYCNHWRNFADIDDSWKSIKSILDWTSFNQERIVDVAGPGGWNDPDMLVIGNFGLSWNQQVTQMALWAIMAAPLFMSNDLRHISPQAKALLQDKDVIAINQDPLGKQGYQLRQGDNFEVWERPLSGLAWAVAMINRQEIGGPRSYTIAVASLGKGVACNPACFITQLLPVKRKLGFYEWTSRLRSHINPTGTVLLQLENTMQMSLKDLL
Rango dissoc inh = qHTS Assay for Inhibitors of RanGTP induced Rango (Ran-regulated importin-beta cargo) - Importin beta complex dissociation; Snurportin-1 (Homo sapiens) + GTP-binding nuclear protein Ran (Homo sapiens) + Importin …; Biochemical FRET Rango-importin beta, RanGTP-induced dissociation; Potency, µM (titrated, usually from 46.1 µM), inactives show at the top dose activity change, negative = inhibition; actives 0.071% (n = 340,000); AID 540253, 2011; active means falling FRET ratio curve, often poorly fitted, with flat reads before Ran was added; inconclusive means other falling curves, or compound fluorescence or quenching; inactive means flat or rising ratio curve;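 further: potency means the concentration at half of the fitted maximal effect; % of control where 0% means no effect; nearly all actives have a fitted effect of over 45% in size; -100% = wells without RanGTP and RCC1; the record marks most hits as doubtful in a second field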
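Two FRET readings bracket the reaction: one 5 min after compound meets Rango–importin beta, another 45 min after RanGTP-RCC1 (0.6 uM Ran, 0.2 uM RCC1, 2 mM GTP) is added. Only the second defines inhibition.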
Starred values were filed as active, the others as inactive; ? = inconclusive; . = no result given; [ ] = remark or other dose.

miR-21 FLuc | Rango complex inh | GLA inh pH 4.5 | Rango dissoc inh | structure
3% | 3.7% | 1 | -10% | COc1cccc(-n2c(Cc3cc(=O)[nH]c(=O)[nH]3)nnc2SCC(=O)NC2CCCCC2)c1
-10% | ? | 5 | -17% | COc1ccc2c(COC(=O)CC3Sc4ccccc4NC3=O)cc(=O)oc2c1 (configuration not stated)
-1% | 0.0% | -3 | -2% | CCOC(=O)CSc1nnc(-c2ccco2)n1-c1ccccc1
-11% | 1.2% | -18 | -2% | O=C(CCc1ccccc1)Nc1cc(C(F)(F)F)ccc1Cl
4% | 0.5% | 3 | 2% | CCOC(=O)N1CCC(NC(=O)c2ccc(CS(=O)(=O)c3ccccc3C)o2)CC1
-5% | 0.3% | 8 | -5% | CCOC(=O)c1cnc(-c2ccccc2)nc1N1CCOCC1
1% | -0.7% | 2 | 25% | CC(C)Cc1nc(S(=O)(=O)c2ccc(Cl)cc2)c(N2CCOCC2)o1
1% | 3.8% | 9 | -4% | O=C(Nc1ccc(C(=O)O)cc1)/C(=C\c1ccco1)NC(=O)c1ccccc1
-5% | -0.7% | . | -1% | CCc1cc(=O)oc2cc(OCC(=O)NCCN3CCOCC3)c(Cl)cc12
-5% | 3.0% | 5 | 22% | COc1ccc(C2N(c3ccccn3)C(=O)C3CCCN32)c(OC)c1 (configuration not stated)
-11% | -0.9% | 1 | 9% | Cc1sc2nc(CSc3ncn[nH]3)[nH]c(=O)c2c1C
15% | 0.4% | 1 | 2% | CC(C)OCCCNc1ncnc2c1[nH]c1ccc(F)cc12
-10% | 1.8% | 6 | -10% | O=C(CC1SC(=NCc2ccccc2)NC1=O)Nc1ccccc1 (configuration not stated)
-3% | -1.8% | 14 | -9% | CN(C)S(=O)(=O)n1ccnc1
-6% | 3.0% | . | 2% | CC(=O)c1ccc(OCC(O)CN2CCN(c3ccc(F)cc3)CC2)cc1 (configuration not stated)
. | -1.4% | . | 1% | COc1ccc(CNC(=O)C2CCCC2)cc1
-4% | -0.6% | -4 | 0% | O=C(O)c1ccc(/C=N/Nc2ccc(S(=O)(=O)N3CCCC3)cc2[N+](=O)[O-])cc1
-13% | -1.4% | -22 | -1% | Cc1cccc(NC(=S)N(C)C2CCCCC2)c1
11% | -1.5% | -9 | -9% | Cc1cccc(COCC(Cc2ccccc2)N2CCN(C(=O)c3cc(Cl)cc(Cl)c3)CCC2=O)c1 (configuration not stated)
-37% | 0.7% | -4 | 2% | CC1CCN(C(=O)COC(=O)c2ccccc2NC(=O)c2ccco2)CC1
-9% | 1.6% | . | -1% | Cc1cc(C)c(C(N)=O)c(Nc2ccc(F)cc2)n1
-3% | -2.2% | -6 | -6% | CCOC(=O)Cn1nnnc1C(CC)N(Cc1cc2ccc(C)cc2[nH]c1=O)C1CCCC1 (configuration not stated)
5% | -0.1% | -2 | -13% | COC(=O)C(Cc1cnc(Cl)s1)(C(=O)OC)c1ccc(C(F)(F)F)cc1[N+](=O)[O-]
-4% | 0.1% | 4 | -24% | CCOc1ccccc1NC(=O)CCN1CCN(S(=O)(=O)c2ccc(OC)cc2)CC1
. | 1.5% | . | -6% | CCc1ccc(NC(=O)C(=O)NCC2CCCN2S(=O)(=O)c2cccs2)cc1 (configuration not stated)
4% | 0.5% | -3 | 17% | COc1ccccc1N(CC(=O)NCc1ccc(F)cc1)C(=O)CCC(=O)Nc1ccccn1
-1% | -0.5% | . | -3% | CC(C)CCNC(=O)C1CCCN(S(=O)(=O)c2ccc3c(c2)CC(C)N3C(=O)C2CC2)C1 (configuration not stated)
. | 3.4% | . | -9% | COc1cc(C(=O)N[C@H](C(=O)OCC(=O)NC2CCCCCC2)C(C)C)cc(OC)c1OC
2% | -1.5% | . | 0% | CN(CCCC(=O)N1CCCC(C(N)=O)C1)S(=O)(=O)c1ccc(F)cc1 (configuration not stated)
-38% | -4.4% | -14 | 23% | CCc1nnc(NC(=O)OCc2ccccc2)s1

An excerpt from above in order of SMILES length, lowest first.
miR-21 FLuc | Rango complex inh | GLA inh pH 4.5 | Rango dissoc inh | structure
-13% | -1.4% | -22 | -1% | Cc1cccc(NC(=S)N(C)C2CCCCC2)c1
-9% | 1.6% | . | -1% | Cc1cc(C)c(C(N)=O)c(Nc2ccc(F)cc2)n1
. | 1.5% | . | -6% | CCc1ccc(NC(=O)C(=O)NCC2CCCN2S(=O)(=O)c2cccs2)cc1 (configuration not stated)
-4% | 0.1% | 4 | -24% | CCOc1ccccc1NC(=O)CCN1CCN(S(=O)(=O)c2ccc(OC)cc2)CC1
4% | 0.5% | -3 | 17% | COc1ccccc1N(CC(=O)NCc1ccc(F)cc1)C(=O)CCC(=O)Nc1ccccn1
-1% | -0.5% | . | -3% | CC(C)CCNC(=O)C1CCCN(S(=O)(=O)c2ccc3c(c2)CC(C)N3C(=O)C2CC2)C1 (configuration not stated)

Look-ups from above.
Rango dissoc inh, Cc1sc2nc(CSc3ncn[nH]3)[nH]c(=O)c2c1C = 9%
Rango complex inh, O=C(CCc1ccccc1)Nc1cc(C(F)(F)F)ccc1Cl = 1.2%
Rango dissoc inh, Cc1cccc(NC(=S)N(C)C2CCCCC2)c1 = -1%
Rango dissoc inh, O=C(O)c1ccc(/C=N/Nc2ccc(S(=O)(=O)N3CCCC3)cc2[N+](=O)[O-])cc1 = 0%

Further results:
miR-21 FLuc | Rango complex inh | GLA inh pH 4.5 | Rango dissoc inh | structure
-34% | -2.9% | 4 | -11% | O=C(NC1CCCC1)C(c1cc2c(cc1[N+](=O)[O-])OCO2)N1CCCC1 (configuration not stated)
. | -2.4% | . | 26% | CN(/N=C/c1ccccc1)C(=S)c1ccccc1
-1% | 0.0% | -2 | 3% | Cc1ccc(C)c(C2=CSC3=NCCN23)c1
0% | -0.8% | . | 12% | COc1ccc(NC(=O)Cc2nnc(SCC(=O)c3ccc(F)cc3)n2C)cc1
. | 2.0% | . | 5% | CCCN(CC(=O)Nc1ccccc1C)C(=O)C1CCN(S(=O)(=O)c2ccccc2C(F)(F)F)CC1
1% | 5.4% | 3 | 29% | Cc1ccc(NC(=O)CSc2nc3[nH]ncc3c(=O)[nH]2)cc1
-13% | 1.2% | -6 | 4% | Cc1ccc(/C=N/n2c(-c3cccc(Cl)c3)n[nH]c2=S)o1
-2% | -1.1% | -2 | 1% | O=C(Cn1c(=O)oc2cc(S(=O)(=O)N3CCCC3)ccc21)Nc1ccccc1Br
-38% | 6.8% | 8 | 1% | COc1ccc(-c2ccccc2)cc1NCc1ccccc1C
-25% | 4.7% | 4 | 1% | CCCC(=O)c1ccc(N2CCCCC2)c(F)c1
-13% | -4.0% | -10 | -3% | COc1ccc(C)cc1NC(=O)CN(Cc1nnc(-c2ccc(Cl)cc2)o1)C1CCCC1
-9% | -5.0% | 3 | -9% | Cc1cccc(-n2nnnc2SCC(=O)c2cc(C)n(Cc3ccco3)c2C)c1
3% | -1.1% | . | 1% | Cc1ccc(C)c(SCC(=O)NNC(=O)c2csc(N3CCOCC3)n2)c1
-3% | 3.7% | -12 | 15% | CC1(C)NC(=O)N(CCOCCOc2ccccc2)C1=O
. | ? | . | -1% | O=C(COC(=O)c1cc(=O)[nH]c2ccccc12)Nc1ccc(Cl)cn1
. | 2.7% | . | -17% | O=C(COC(=O)CNC(=O)c1ccc(Cl)cc1Cl)NNC(=O)c1ccccc1
-2% | -1.6% | 4 | -3% | CCN(CC)CCCNC(=O)c1ccccc1C
-7% | -5.6% | 1 | 18% | CCOC(=O)c1c(NC(=O)CN2CCOCC2)sc2c1CCCC2
-84% | ? | -10 | -6% | C/C(=C\c1ccccc1)C1NC(=O)c2c(sc3c2CCCC3)N1 (configuration not stated)
12% | -2.8% | -1 | 10% | Cc1c(O)c(=O)ccn1Cc1ccccc1
. | 2.7% | . | -20% | O=C(Cn1nc(-c2cccc(Cl)c2)ccc1=O)NCC1COCCO1 (configuration not stated)
-1% | ? | 7 | ? | Cc1cc(N2CCOCC2)ccc1/C=C1\NC(=O)N(Cc2ccccc2)C1=O
0% | 2.3% | . | 0% | O=C(NCC(=O)N(Cc1ccc(F)cc1)C(C(=O)NCC1CCCO1)c1ccccc1)c1ccco1 (configuration not stated)
-1% | -3.6% | . | -4% | COc1ccc(-c2c(C)nn3c(C)cc(C)nc23)cc1
15% | 4.7% | . | -25% | Cc1cc(C)n(-c2ccc(NC(=O)C3CCCCN3Cc3cccc4c3OCO4)cc2)n1 (configuration not stated)
-1% | -3.6% | -6 | 0% | O=C(Oc1ccc2cccc(OC(=O)N3CCOCC3)c2c1)N1CCOCC1
-5% | 2.4% | -8 | 0% | O=C(NCCN1CCOCC1)c1ccc(N2CCCC2)c([N+](=O)[O-])c1
-11% | 2.8% | . | 25% | CC(=O)N1N=C(c2ccccc2)CC1c1cccc([N+](=O)[O-])c1 (configuration not stated)
3% | 0.3% | . | -2% | Cc1nn(CC(=O)NCc2cccs2)c(=O)c2nn(-c3ccccc3)c(C)c12
. | -2.4% | . | 5% | CN(C(=O)COc1ccc(Cl)cc1)C1(C)CCS(=O)(=O)C1 (configuration not stated)
-4% | -2.3% | -22 | 2% | COc1ccc(COCC(O)CN(Cc2ccco2)Cc2ccccc2O)cc1 (configuration not stated)
-19% | 0.6% | 0 | 1% | CCOC(=O)c1sc(NC(=O)c2ccco2)nc1C
1% | 3.1% | -3 | -1% | CCOC(=O)Cc1csc(NC(=O)CSc2nnc(-c3ccncc3)o2)n1
-2% | 11% | . | 3% | C=CCn1nnnc1SCC(=O)Nc1cccc(C(F)(F)F)c1
-2% | -1.6% | 6 | -7% | Cc1cc2c(OCC(O)CN3CCCCC3)cccc2[nH]1 (configuration not stated)
-3% | 1.1% | -3 | -6% | COc1ccc(C(=O)N/C(=C/c2cccnc2)C(=O)N2CCOCC2)cc1OC
28% | 1.7% | -24 | -5% | COc1ccc(CCN2C(=S)N(C)C(=O)C2CC(=O)Nc2ccc(OC)cc2)cc1 (configuration not stated)
9% | 6.6% | -2 | 4% | CC(Sc1ccsc1[N+](=O)[O-])C(=O)NCc1ccco1 (configuration not stated)
-2% | 2.7% | -1 | -5% | CC(=O)Nc1ccc(S(=O)(=O)NNC(=O)c2cccc3ccccc23)cc1
20% | 2.0% | -8[21.1 µM] | -2% | CCOC(=O)N1CCC(NC(=O)c2ccc(N3CCC4(CC3)OCCO4)c([N+](=O)[O-])c2)CC1
-1% | 3.9% | 7 | 3% | CC(C)(C)C(=O)Nc1cccc(C(=O)c2cccc(NC(=O)C(C)(C)C)c2)c1
0% | -2.3% | -1 | -2% | Cc1cc(C)cc(N2C(=O)CC(N3CCOCC3)C2=O)c1 (configuration not stated)
-2% | 1.7% | . | 0% | Cc1ccccc1-n1ncc(C(C)NS(=O)(=O)c2ccccc2Cl)c1C (configuration not stated)
11% | -1.0% | -1 | 2% | CCOCCCNC(=O)C(c1ccccc1)N(Cc1cccs1)C(=O)c1ccccc1O (configuration not stated)
. | ? | . | ? | COc1cc(/C=C/C(=O)OCC(=O)NCC2CCCCC2)ccc1O
1% | -3.4% | -5 | -16% | CCOC(=O)c1c(-c2ccccc2)csc1NC(=O)c1nn(CC)cc1Br
-12% | -1.4% | 1 | -7% | COC(=O)c1ccc(NC(=S)NC(=O)c2c(Cl)cnn2C)cc1
. | -2.0% | . | 30% | CCN(CC)S(=O)(=O)c1ccc(N2CCCC2)c(NC(=O)C2CSC3(C)CCC(=O)N23)c1 (configuration not stated)

2 records drawn at random from those above:
miR-21 FLuc | Rango complex inh | GLA inh pH 4.5 | Rango dissoc inh | structure
1% | 3.1% | -3 | -1% | CCOC(=O)Cc1csc(NC(=O)CSc2nnc(-c3ccncc3)o2)n1
1% | -3.4% | -5 | -16% | CCOC(=O)c1c(-c2ccccc2)csc1NC(=O)c1nn(CC)cc1Br

Only part of the results is shown. The share of hits here may be higher or lower than overall.
